gsp agonist = gsp mutant agonism; Potency, µM (series often up to 76.9 µM), inactives show top-dose activation (cAMP increase), actives largely listed as activators; 340,000 compounds, 0.13% hits; AID 624287; gsp mutant cells, cAMP HTRF, 30 min; control for the full effect not named in the record; active = well fitted activation curve with a large enough effect; inconclusive = small, poorly fitted or top-dose-only effect, or another doubt; inactive = no such curve, though single readings can be large or run the other way; cell line not stated here;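 also: phosphodiesterase inhibitor Ro 20-1724 added with compounds to block cAMP breakdown; potency is read from the fitted curve at half-maximal effect; nearly all actives have a fitted effect of over 60% in size; about a fifth of the inactives were tested at one dose only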
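Cells stably selected in G418 were plated at 2000/well, grown 16-24 hr, then given compounds in DMSO with the PDE inhibitor […] (300 uM solution added) for 30 min at 37C; cAMP was read by HTRF.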
CtBP-E1A blk = CtBP/E1A binding inhibition; activity change, % (concentration not given with the values); AlphaScreen GST-E1A/His-CtBP binding, 1536-well; active compounds read low; control for the full effect not named in the record; AID 651724; 340,000 compounds, 0.49% hits; in the data active means activity change below about -65%; inconclusive means about -30% to -65%; inactive means above about -30%; also: % is scaled to controls: 0 for no effect and ±100 for the full control effect
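Protein mix (5X: 125 nM each GST-E1A, His-CtBP) was incubated with pinned compound 2 h at 37 deg C in dark, in 50 mM Tris pH 8.0 buffer with 300 mM NaCl. Glutathione donor and nickel acceptor beads followed; AlphaScreen signal read after 1 h.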
Six1-Eya2 blk = inhibitors of human Six1/Eya2 interaction; Q15475+O00167; AlphaScreen GST-Six1/His-Eya2 binding, biochemical; active compounds read low; control for the full effect not named in the record; activity change, % (test concentration not listed); 360,000 compounds, 0.56% hits; in the data active = activity change below about -65%; inconclusive = about -30% to -65%; inactive = above about -30%; also: % is scaled to controls: 0 for no effect and ±100 for the full control effect
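AlphaScreen with GST-Six1 and His-Eya2 (5X mix: 250 nM and 500 nM), glutathione donor and nickel acceptor beads; buffer 50 mM Tris pH 8.0, 300 mM NaCl, 1 mM TCEP; 1 h at 37 C in the dark.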
gsp antag = antagonists of gsp mutant (McCune-Albright syndrome) | gsp-mutant cells, cAMP HTRF, 30 min; control for the full effect not named in the record | AID 624288 | 340,000 compounds, 0.4% hits | Potency, µM (highest dose often 76.9 µM), inactives show at the highest dose activity change, negative = inhibition, hits mostly inhibitors; active = falling curve of any shape with a large fitted effect; inconclusive = falling curve, mostly with a smaller effect; inactive = flat or rising curve; cell line not stated here;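 also: intracellular cAMP measured with PDE inhibitor Ro 20-1724 present during compound exposure; potency is read from the fitted curve at half-maximal effect; % is scaled to controls: 0 for no effect and ±100 for the full control effect; nearly all actives have a fitted effect of over 65% in size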
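Cells in G418 medium, seeded 16-24 h, 37C; buffer exchange to DPBS + 1 mM CaCl2, 0.5 mM MgCl2, 0.05% BSA; cpds in DMSO + […] (300 uM stock), 30 min 37C; HTRF cAMP detection.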
D2 agonist = human D2 receptor agonism in beta-arrestin assay; DiscoveRx PathHunter D2 beta-arrestin, luminescence, 90 min; 100% = 57 uM dopamine signal; activation, % (concentration not given with the values); 360,000 compounds, 0.084% hits; in the data active = activation above about 40%; inconclusive = about 15% to 40%; inactive = below about 15%; also: the text of the record calls up to 30% inactive
Target sequence (P14416 whole entry, looked up): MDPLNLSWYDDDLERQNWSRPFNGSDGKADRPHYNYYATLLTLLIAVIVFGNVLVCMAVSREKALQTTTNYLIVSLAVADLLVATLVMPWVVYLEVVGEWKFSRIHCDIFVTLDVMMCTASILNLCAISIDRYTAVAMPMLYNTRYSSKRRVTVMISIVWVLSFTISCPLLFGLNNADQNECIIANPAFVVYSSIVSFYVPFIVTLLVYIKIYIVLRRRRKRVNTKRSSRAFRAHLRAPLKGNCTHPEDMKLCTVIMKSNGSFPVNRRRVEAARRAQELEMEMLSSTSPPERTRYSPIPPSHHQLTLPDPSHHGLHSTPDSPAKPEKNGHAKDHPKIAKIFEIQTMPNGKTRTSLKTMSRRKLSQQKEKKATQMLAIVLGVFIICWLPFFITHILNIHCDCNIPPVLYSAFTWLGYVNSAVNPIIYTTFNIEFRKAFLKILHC
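DiscoveRx PathHunter D2 beta-arrestin cells (2,100/well) attached overnight, then compound-stimulated 90 min at 37 C in HBSS/10 mM HEPES/0.1% Tween-20 buffer; beta-galactosidase complementation read by luminescence after 1 h at ambient temperature. Dopamine 57 uM final (EC100) as control.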
D2 PAM = positive allosteric modulators of human D2 dopamine receptor | P14416 | DiscoveRx D2 beta-arrestin cells, luminescence, 90 min; 100% = 57 uM dopamine signal | 360,000 compounds, 0.23% hits | potentiation, % (test concentration not listed); active = potentiation of 50% or more; inconclusive = 30% to 50%; inactive = 30% or less;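 also: compound concentration not given in the record; tested on top of an EC20 dose of dopamine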
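PathHunter D2 cells, attached overnight at 37 deg C, received compound in DMSO plus dopamine at EC20 (50 nM final) for 90 min at 37 deg C. Beta-arrestin recruitment was read as luminescence after 1 h with detection reagent at ambient temperature.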
The depositor's hits bear a star; ? = inconclusive; / = no result given; [ ] = another dose, or the depositor's remark.

Screens in order: gsp agonist, CtBP-E1A blk, Six1-Eya2 blk, gsp antag, D2 agonist, D2 PAM
COc1ccc(S(=O)(=O)n2ccc(-c3cnc(-c4ccccc4)s3)n2)cc1
 : 1%, 8, 4, -7%, -0.6, 1
COc1ccc(-c2ccc3c(c2)S(=O)(=O)c2cccc(C(=O)N4CCN(c5c(Cl)cncc5Cl)CC4)c2C3=O)cc1OC
 : 4%, -15, -10, -15%, 2.8, 18
O=C(c1ccc2c(c1)OCO2)N1CCN(S(=O)(=O)c2ccccc2)CC1
 : 28%, 7, 4, 13%, -2.8, 23
CCCCN(CCCC)c1cn[nH]c(=O)c1Cl
 : 23%, 0, 4, -10%, -2.2, 0
O=C1NC(=S)SC1=Cc1ccc2c(c1)OCO2
 : -2%, -24, 11, -6%, -1.9, -3
CC1(C)Cn2c(nnc2-c2cccc(O)c2)S1
 : -9%, 18, 5, 18%, -1.0, -3
O=S(=O)(NC1CCCCCCC1)c1ccccc1F
 : 18%, 5, 10, 17%, 5.0, 3
COc1ccc(-c2nnc(SCc3ccc(C(=O)O)cc3)n2N)cc1
 : 6%[15.4 µM], 5, 13, 8%, -3.0, -12
CC1CCCN(C(=O)c2cccc(S(=O)(=O)N3CCCC3)c2)C1 (centres undefined)
 : 4%, 2, -4, 11%, -0.2, 0
Cc1noc(C)c1S(=O)(=O)NCc1ccc(CN(C)C)cc1
 : 27%, 13, 0, 14%, -0.6, -1
O=S(=O)(c1ccc2nnn(OCc3ccccc3)c2c1)N1CCOCC1
 : -38%[inhibitor], 10, 4, 6%, -0.7, 22
COc1cc2c(cc1OC)[C@@H](NC(=O)C(C)C)[C@H](OCc1ccccc1)C2
 : /, 3, 3, -4%, -0.6, 1
CCN(CC)C(=O)C1CCCN(Cc2ccccc2)C1 (centres undefined)
 : -16%, 52, 29, 4%, -2.5, -8
COC(CNC(=O)c1ccc2c(c1)nc(C)n2-c1cccc(F)c1)OC
 : -9%, 0, -1, 4%, -4.2, -9
c1ccc(-c2[nH]ncc2CN2CCN(Cc3ccc4c(c3)OCO4)CC2)cc1
 : -5%[15.4 µM], -2, -3, -1%, -3.2, -21
CC(C)=CCCC(C)CN1CCC(n2nccc2NC(=O)c2cccnc2)CC1 (centres undefined)
 : -32%, -2, 2, 5%, -3.2, -23
COc1ccc(CNC(=O)Cn2cccc2C(=O)c2ccccc2)cc1
 : 0%, 1, 0, -10%, -0.2, -2
CCCCCNC(=O)C(C)Sc1ccc(Cl)cc1 (centres undefined)
 : -5%, 17, 8, 9%, -4.7, -10
COC1CCN(C(=O)C2CCC(=O)N(CCc3cccc(F)c3)C2)CC1 (centres undefined)
 : 4%, 1, 14, 8%, -1.5, 0
O=S(=O)(c1ccccc1)N(c1ccccc1)S(=O)(=O)c1ccccc1
 : -43%[inhibitor], 6, 0, -3%, -1.6, -4

Screens in order: gsp agonist, CtBP-E1A blk, Six1-Eya2 blk, gsp antag, D2 agonist, D2 PAM
Cc1nc2c(ccc3nc(NC(=O)c4ccc(S(=O)(=O)N(C)C)cc4)sc32)s1
 : -7%, 9, ?, -1%, 1.7, -5
CCCCn1c(SC(C)C(N)=O)nc2cc(C(=O)OC)ccc2c1=O (centres undefined)
 : 2%, 7, 6, 9%, -2.4, -13
COc1ccc(-c2csc(C(C#N)=C(O)CSc3nccn3C)n2)cc1OC
 : -6%, ?, ?, -10%, -0.7, -5
Cc1nc(NC2=NCN(CCCN3CCOCC3)CN2)nc2c(C)cccc12
 : 7%[15.4 µM], -1, ?, 15%, 0.0, -17
Cc1cc(C(=O)O)ccc1NCc1cccnc1
 : 12%[15.4 µM], 0, 14, 1%, 2.3, 0
O=[N+]([O-])c1ccc(SCc2c(F)cccc2Cl)nc1
 : 10%, -25, -24, 0%, 1.8, -1
O=C(Nc1ccc2cn[nH]c2c1)c1ccc(S(=O)(=O)N2CCOCC2)cc1
 : -17%[15.4 µM], -11, -14, -5%, 7.5, -4
CN(Cc1cccs1)C(=O)CN1CCN(S(=O)(=O)c2ccc3c(c2)OCCCO3)CC1
 : 11%[15.4 µM], -19, -1, 2%, -1.2, -18
COc1cccc(OC)c1C(=O)Nc1cccc(-c2ccc3nncn3n2)c1
 : 30%, 0, -4, 6%, -0.6, -6
CCOc1ccccc1NC(=O)COC(=O)C(CC(C)C)N1C(=O)C2CC=CCC2C1=O (centres undefined)
 : -45%[inhibitor], -1, 13, -6%, -0.1, -16
Cc1cccc(N2CCN(C(=O)c3ccc(N4CCCC4=O)cc3)CC2C)c1 (centres undefined)
 : 0%, 1, -5, ?, 0.5, 27
COc1ccccc1NC(=O)c1nc[nH]c1C(=O)Nc1ccccc1OC
 : 9%, -3, 0, 10%, -2.9, -10
CC1CCN(S(=O)(=O)c2ccc(NC(=O)CN3CCCC3)cc2)CC1
 : -5%[15.4 µM], -14, 14, 15%, -6.8, -12
Cc1cc(C)nc(/N=C(\N)Nc2ccc(S(=O)(=O)Nc3nccc(C)n3)cc2)n1
 : ?, -2, 0, 19%, 0.4, 1
COc1cccc(CNc2ccc(S(N)(=O)=O)cc2)c1OC
 : -15%, 3, 2, -6%, 1.3, -5
O=C(NCc1ccccc1)C1=C[C@H](c2coc3ccccc3c2=O)C[C@H](OCc2ccc(CO)cc2)O1
 : /, -2, -7, -17%, 3.6, 9
NC(=O)CC(NC(=O)c1ccccc1)c1ccc(NCc2ccc(F)cc2)c([N+](=O)[O-])c1 (centres undefined)
 : /, -11, -16, 2%, -4.9, -13
CC(C)N(Cc1ccccc1)S(=O)(=O)c1ccc(F)cc1
 : -62%[inhibitor], 19, 9, -8%, 5.6, 0
COCCCNCCCCOc1ccc(Br)cc1Cl
 : 20%, 12, 5, 1%, -4.2, -36
COc1ccc(CC(=O)Nc2c(C(N)=O)oc3ccccc23)cc1OC
 : -4%, 1, -2, 9%, 4.4, 8

Screens in order: gsp agonist, CtBP-E1A blk, Six1-Eya2 blk, gsp antag, D2 agonist, D2 PAM
CCOC(=O)C1(C(=O)OCC)CC1c1ccccc1 (centres undefined)
 : 18%, 5, 12, 5%, 0.0, -13
CCOc1ccc(N=Nc2c(=O)[nH]n3c(=O)c4c([nH]c23)CCCC4)cc1
 : 4%, 16, 7, -2%, -1.9, -14
COc1cccc(CC(NC(C)=O)C(=O)NC2CCN(c3nc(C)cc(C)c3C#N)CC2)c1OC (centres undefined)
 : -30%, 0, 20, 23%, -5.7, -21
O=C(O)c1cccc(N2C(=O)Nc3ccccc3N2O)c1
 : ?, 17, 7, 6%, -3.6, -11
COC(=O)c1cccc(NS(=O)(=O)c2cccs2)c1C
 : 3%, -8, -1, -10%, -0.8, 2
CCc1cc(=O)oc2cc(C)cc(OCC(=O)NC3CCN(Cc4ccccc4)CC3)c12
 : -3%, /, -1, ?, -3.4, -13
CC1CC(C)CN(S(=O)(=O)N2CCC(C(=O)NCCc3ccccc3)CC2)C1 (centres undefined)
 : 0%, 7, 7, 9%, -11, -5
CCCCNC(=O)C1CC(c2c(Cl)cccc2Cl)=NO1 (centres undefined)
 : -14%, /, 0, 11%, -0.4, -6
CCCCn1c(=O)c(CCC(=O)OCC(=O)NCc2ccc(OC)c(OC)c2)nc2ccccc21
 : -41%[inhibitor], 4, 1, ?, 0.3, 5
CCOC(=O)C1(Cc2ccc(OC)cc2)CCN(C(=O)CCn2ccc(C)n2)CC1
 : 2%[15.4 µM], 10, -5, -11%, -2.3, -10
O=C(COC(=O)c1ccc([N+](=O)[O-])o1)NC1CCCC1
 : 1%[15.4 µM], 6, 0, -2%, 7.6, 14
COc1cc(CNCc2cccs2)cc(Br)c1OC
 : -3%, 0, 23, 3%, -4.3, -26
COc1ccc(C(=O)N2CCC(C(=O)Nc3ccccc3OC)CC2)cc1
 : 4%, 2, 6, 2%, 0.4, -1
NC(=O)COC(=O)c1ccc2c(c1)S(=O)(=O)N=C1CCCCCN12
 : -3%, 0, -1, 13%, -4.8, -13
Cc1ccc(C(=O)N2c3ccccc3Sc3ccccc32)cc1
 : /, 2, 2, /, -6.3, -2
Cn1nc(C(=O)OCc2ccccc2F)c2ccccc2c1=O
 : -5%[15.4 µM], -19, 2, 3%, -0.8, 7
CCOC(=O)c1[nH]c2cc(OC)c(OC)cc2c1NC(=O)c1nonc1C
 : -9%, 2, 2, 8%, -3.8, -9
COCCCNC(=O)Cc1ccccc1OC
 : -6%, -4, 6, 12%, -1.3, -2
CC(=O)C(N=Nc1ccccc1)(Sc1nnc(-c2ccccc2)n1-c1ccccc1)C(=O)Nc1ccccc1 (centres undefined)
 : -8%, -17, -12, -14%, 1.8, -5
COc1cc(CN(C(=S)NCC(=O)N2CCCC2)C2CCCC2)cc(OC)c1OC
 : -15%[15.4 µM], -6, 1, -4%, -2.8, -3

Screens in order: gsp agonist, CtBP-E1A blk, Six1-Eya2 blk, gsp antag, D2 agonist, D2 PAM
CCOc1ccc(S(=O)(=O)Nc2ccccc2C(=O)N(C)C2CCN(C)CC2)cc1
 : 19%, 2, 7, 9%, -1.0, -1
CCOC(=O)N1CCN(C(=O)c2cc(COc3c(F)cccc3F)on2)CC1
 : ?, 0, -2, -5%, -2.1, -6
CCOP(=O)(OCC)C(NC(=O)c1ccc(OC)cc1)c1ccccc1 (centres undefined)
 : ?, 7, 1, -1%, -1.0, -1
CCc1ccc(NC(=O)C(=O)NCCN2CCN(S(C)(=O)=O)CC2)cc1
 : -20%, 7, -5, 5%, -5.8, -3
CC1(C)O[C@@H]2[C@H](O1)[C@@H](COS(=O)(=O)O)O[C@H]2n1cc(Br)c(=O)[nH]c1=O
 : 24%, 30, 16, 11%, -1.8, -7
COCCn1c(-c2ccc(Cl)cc2)cnc1SCC(=O)NCCc1ccc(OC)c(OC)c1
 : -6%[15.4 µM], -3, -8, -18%, -1.5, 8
O=c1cc(CSc2nnnn2-c2ccc(O)cc2)nc2sccn12
 : 20%, -5, -2, -15%, -1.7, -1
C=CCn1c(SCC(=O)c2ccc(Br)cc2)nnc1C(CC(C)C)NC(=O)c1cccs1 (centres undefined)
 : -30%, 2, -2, -10%, -1.5, -12
COC(=O)c1ccc(NC(=O)CSc2nnc(-c3cccnc3)o2)cc1
 : 4%[15.4 µM], 2, -2, 9%, -0.7, 5
COc1ccc(NS(=O)(=O)c2cccc(NC(=O)COc3ccccc3[N+](=O)[O-])c2)cc1
 : 3%[15.4 µM], 5, 2, ?, 1.4, -8
CCCCCCCCc1nnc(NC(=O)c2ccco2)s1
 : 0%, -1, 1, 0%, 0.2, -4
COc1cc(C(=O)Nc2ccc(N(C)C)cc2)cc(OC)c1OC
 : ?, -9, -10, -9%, -3.7, -21
Cc1ccc(Nc2ccc([N+](=O)[O-])nc2[N+](=O)[O-])cc1
 : 7%, -23, -11, 3%, 6.0, ?
COc1ccc(CCNC(=O)CSc2nnc(-c3cccc(C)c3)o2)cc1OC
 : 9%, 2, 7, -7%, 3.4, -13

The order is random. About 1.4% of those tested had a hit in this group.
